Cruzain Triton: inhibitors of Trypanosoma cruzi cruzain with detergent; P25779; Potency, µM, for inactives: max response, negative = inhibition, most hits filed as inhibitors; purified cruzain, Z-FR-AMC fluorescence, 0.01% Triton; 200,000 tested, 0.43% active; active = well fitted curve in the direction sought with a large enough effect; inconclusive = small, poorly fitted or top-dose-only effect, or another doubt; inactive = no such curve, though single readings can be large; an effect the other way counts as inactive or inconclusive;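 also: plate controls were neutral wells for no effect and buffer without enzyme for full effect; nearly all actives have a fitted effect of over 40% in size; top concentration of the series not given in the record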
Target sequence (P25779 123-467 limits assumed): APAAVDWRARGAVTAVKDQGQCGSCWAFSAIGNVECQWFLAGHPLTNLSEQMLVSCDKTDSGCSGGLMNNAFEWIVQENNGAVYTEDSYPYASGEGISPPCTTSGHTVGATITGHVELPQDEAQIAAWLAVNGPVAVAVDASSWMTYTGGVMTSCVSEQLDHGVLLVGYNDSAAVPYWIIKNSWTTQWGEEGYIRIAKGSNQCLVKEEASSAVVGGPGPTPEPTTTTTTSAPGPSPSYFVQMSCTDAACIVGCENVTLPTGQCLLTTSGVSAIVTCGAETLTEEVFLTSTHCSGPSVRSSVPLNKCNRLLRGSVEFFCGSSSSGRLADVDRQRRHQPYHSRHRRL
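Read-out: AMC fluorescence (360 nm excitation, 450 nm emission), four reads over 2 min, first-to-third difference used. Conditions: cruzain 1.5 nM, Z-FR-AMC 2 uM, pH 5.5 acetate, 5 mM DTT, 0.01% Triton X-100.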
Cruzain noTriton: inhibitors of Trypanosoma cruzi cruzain without detergent | P25779 | purified cruzain, Z-FR-AMC fluorescence, no detergent | Potency, µM, for inactives: max response, negative = inhibition, hits mostly inhibitors | 200,000 tested, 2.3% active | AID 1476; active = well fitted curve in the direction sought with a large enough effect; inconclusive = small, poorly fitted or top-dose-only effect, or another doubt; inactive = no such curve, though single readings can be large; an effect the other way counts as inactive or inconclusive;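 also: plate controls were enzyme without inhibitor for no effect and buffer without enzyme for full effect; nearly all actives have a fitted effect of over 40% in size; top concentration of the series not given in the record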
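Detergent-free condition (0.00005% Triton X-100) in acetate buffer pH 5.5 with DTT. 1.5 nM enzyme and compound were pre-mixed 15 min, then 2 uM Z-FR-AMC substrate added; reaction progress from fluorescence change between first and third reads (60 s).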
Lassa entry inh: blocks Lassa virus binding to or entry into cells | AID 540256 | 300,000 tested, 1.2% active | Lassa virus pseudotype entry inhibition, cell reporter; control for the full effect not named in the record | Potency, µM (doses to about 37.9 µM), without a hit: at the top dose activity change, negative = inhibition, most hits filed as inhibitors; active means well fitted inhibition curve with a large enough effect; inconclusive means small, poorly fitted or top-dose-only effect, or effect the other way; inactive means flat fitted curve, though single readings scatter; tested in HEK293 cells; also: % is scaled to controls: 0 for no effect and ±100 for the full control effect; nearly all actives have a fitted effect of over 50% in size; luciferase read-out
SARS PLpro yeast: inhibitors of SARS-CoV papain-like protease in yeast; S. cerevisiae expressing SARS-CoV PLpro, growth rescue; control for the full effect not named in the record; Potency, µM (top dose mostly 32.9 µM), for inactives: at the highest dose activity, positive = growth rescue; 330,000 tested, 0.19% active; AID 485353; also: 0% is about no effect; nearly all actives have a fitted effect of over 55% in size; growth read by luminescence after 48 h
NS1 inh: inhibitors of influenza NS1 protein function; S. cerevisiae slowed by influenza A NS1, growth recovery by OD600; Potency, µM (top dose mostly 46.1 µM), without a hit: top-dose activity, positive = more growth; 270,000 tested, 0.4% active; also: actives are rising curves; nearly all actives have a fitted effect of over 50% in size
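S. cerevisiae expressing influenza A NS1, grown in glucose, washed, then diluted 1:100 into pH 6.0 -URA galactose medium with 23 nl compound. Growth recovery read as OD600; NS1-free strain serves as control.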
Marburg entry inh: Marburg virus entry inhibition; Marburg virus pseudotyped entry inhibition, cell reporter; control for the full effect not named in the record; about a third of the inactives were read at about 46 µM; Potency, µM (titrated, usually from 37.8 µM), for the others: top-dose activity change, negative = inhibition, most hits filed as inhibitors; 300,000 tested, 1.8% active; AID 540276; active = well fitted inhibition curve with a large enough effect; inconclusive = small, poorly fitted or top-dose-only effect, or effect the other way; inactive = flat fitted curve, though single readings scatter; tested in HEK293 cells; about a fifth of its hits are not listed in these tables; also: % is scaled to controls: 0 for no effect and ±100 for the full control effect; luciferase read-out
RE007 growth inh: less growth of the S. pombe RE007 Vpr strain; S. pombe RE007 Vpr strain, BacTiter-Glo ATP luminescence, 24 h; control for the full effect not named in the record; Potency, µM (highest dose often 92.2 µM), inactives show top-dose activity change, negative = less growth; 360,000 tested, 0.21% active; AID 651644; active = well fitted falling curve with a large enough effect; inconclusive = small, poorly fitted or top-dose-only effect; inactive = no such curve, though single readings can be large or run the other way;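 also: % is scaled to controls: 0 for no effect and ±100 for the full control effect; nearly all actives have a fitted effect of over 50% in size; the assay follows cell death caused by Vpr and the record does not say whether a fall means rescue or toxicity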
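Fission yeast RE007 carrying one integrated HIV-1 vpr copy, seeded at OD 0.01 in PMG+AL medium with 23 nL pinned compound. Grown 24 h at 30 degrees; viability read by BacTiter-Glo luminescence after 5 min.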
2A StopGo: FMDV 2A StopGo reporter, luciferase signal | human cells with a luciferase reporter of 2A StopGo recoding; control for the full effect not named in the record | Potency, µM (highest dose often 57.9 µM), without a hit: at the top dose signal change, negative = less light | 410,000 tested, 1.2% active; active = well fitted falling curve with a large enough effect; inconclusive = small, poorly fitted or top-dose-only effect; inactive = no such curve, though single readings can be large or run the other way; tested in HEK293T cells; also: % is scaled to controls: 0 for no effect and ±100 for the full control effect; nearly all actives have a fitted effect of over 45% in size; luciferase light after 4 h
* hit, by the source's call; ? = inconclusive; nt = not tested or not shown; [ ] = another dose, or the depositor's remark. Unless noted, calls follow the shape of the dose curve; as a rule, active means well fitted rising curve with a large enough effect; inconclusive means small, poorly fitted or top-dose-only effect; inactive means no such curve, though single readings can be large or run the other way. Potency is read from the fitted curve at half-maximal effect.

Compound | Cruzain Triton | Cruzain noTriton | Lassa entry inh | SARS PLpro yeast | NS1 inh | Marburg entry inh | RE007 growth inh | 2A StopGo
O=C(O)C(c1ccccc1)C1(O)CCC1 (stereo not given) | nt | nt | 12%[46.1 µM] | nt | nt | 12%[46.1 µM] | 9% | -9%
CCC(C(=O)Nc1cccc(C(=O)O)c1)c1ccccc1 (stereo not given) | nt | nt | 6% | 0% | -3% | 18% | 2% | -7%
Cc1ccc(C)c(N(C(=O)CCC(=O)Nc2cc(C)on2)C(C(=O)NC2CCCC2)c2ccco2)c1 (stereo not given) | -0.9% | 23% | -30% | ? | -10% | ? | -6% | -18%
NC(=O)c1ccc(C2SCC(=O)N2Cc2ccccc2)cc1 (stereo not given) | 4.9% | 3% | 7% | 2% | 2% | -7% | -7% | 0%
Cc1cc2c(cc1C)CSC(c1ccccc1OC(=O)C(C)C)SC2 | -2.3% | 7% | -14% | 2% | 0% | ? | 6% | ?
CC1CCc2c(sc(NC(=O)CSc3ncnc4c3cnn4-c3ccccc3Cl)c2C#N)C1 (stereo not given) | 5.5% | 10µM* | ? | 6% | 2% | -19% | -11% | -12%
CCC(C)(C)NC(=O)C(c1cccn1C)N(Cc1ccc(OC)cc1)C(=O)Cn1nnc2ccccc21 (stereo not given) | -0.3% | ? | -1% | -4% | 15% | -12% | 0% | 54%[activator]
COCCN1C(=O)C(CC(=O)Nc2ccccc2)SC1=Nc1ccc(OC)cc1 (stereo not given) | -5.7% | ? | -3% | 0% | 1% | -29% | 11% | -20%
CCN(CC)c1ccc(NC(=O)c2ccccc2Br)cc1S(=O)(=O)Nc1ccccc1OC | -18% | ? | ? | -4% | ? | ? | -3% | 2%
CC(C)CC(=O)NC(NCC1CCCO1)C(Cl)(Cl)Cl (stereo not given) | 5.4% | 3% | 6% | 1% | 4% | 6% | 22% | -6%
Cc1cc2oc(=O)sc2cc1NS(=O)(=O)c1cccc2cccnc12 | nt | nt | ? | -23% | -35% | -4% | -10% | 1%
COc1ccc(CC2(CO)CCN(CC3=CC[C@H]4C[C@@H]3C4(C)C)CC2)cc1 | nt | nt | nt | 1% | -1% | nt | -4% | -22%
CCCCN(CC(=O)NCc1ccc(Cl)cc1)S(=O)(=O)c1ccc2c(c1)OCCO2 | -8.1% | 1% | -9% | 0% | -6% | -17% | -2% | 30%[activator]
O=C(N/N=C/C1CCCCC1)c1cc(Cl)ccc1O | 4.0% | 0% | 6% | 0% | -52% | -20% | ? | -10%
c1ccc2[nH]c(CCCCc3nc4ccccc4[nH]3)nc2c1 | nt | nt | nt | -4% | 6% | nt | 13% | -18%
C/C(=N\Nc1ccc(C(F)(F)F)cn1)c1ccc(S(=O)(=O)NCc2ccco2)cc1 | -4.5% | -13% | -18% | 3% | ? | ? | 4% | -19%
O=C1NCCCCC1(Cl)Cl | nt | nt | -6%[46.1 µM] | nt | nt | 7%[46.1 µM] | 3% | -4%
C/C(CC(=O)Nc1ccc(Cl)cn1)=N\NC(=O)Cc1cccs1 | nt | nt | 3% | 1% | 3% | 8% | 12% | 15%
COc1ccc(C(=O)Nc2nc(-c3cccs3)cs2)cc1 | -2.1% | -9% | ? | nt | -128% | ? | ? | 0%
COC(=O)c1[nH]c2ccc(Cl)cc2c1NC(=O)CN1CCC(C(N)=O)CC1 | -1.3% | -4% | 9% | 3% | 0% | -15% | 9% | -6%
CCC(=O)NC(NC(=S)Nc1ccccc1Br)C(Cl)(Cl)Cl (stereo not given) | -0.1% | ? | 4% | -17% | -1% | -1% | nt | -14%
O=C(c1ccc(CS(=O)c2ccccc2Cl)o1)N1CCN(c2cccc(Cl)c2)CC1 (stereo not given) | -5.5% | ? | ? | nt | nt | nt | nt | -19%
Cc1cccc(CNS(=O)(=O)c2ccc3[nH]c(=O)ccc3c2)c1 | -0.8% | -9% | 1%[46.1 µM] | nt | nt | nt | nt | ?
Cc1c(Cl)cccc1NC(=O)CCS(=O)(=O)c1ccc2c(c1)CC(=O)N2C | -1.6% | 4% | 12%[46.1 µM] | nt | nt | nt | nt | -14%

Random excerpt: 2 records from the list
Compound | Cruzain Triton | Cruzain noTriton | Lassa entry inh | SARS PLpro yeast | NS1 inh | Marburg entry inh | RE007 growth inh | 2A StopGo
O=C(O)C(c1ccccc1)C1(O)CCC1 (stereo not given) | nt | nt | 12%[46.1 µM] | nt | nt | 12%[46.1 µM] | 9% | -9%
COc1ccc(CC2(CO)CCN(CC3=CC[C@H]4C[C@@H]3C4(C)C)CC2)cc1 | nt | nt | nt | 1% | -1% | nt | -4% | -22%

(next part)
Compound | Cruzain Triton | Cruzain noTriton | Lassa entry inh | SARS PLpro yeast | NS1 inh | Marburg entry inh | RE007 growth inh | 2A StopGo
CCCn1c(SCc2nc(-c3cc(OC)ccc3OC)no2)nnc1-c1ccc(Cl)cc1 | -8.3% | 22% | -18%[46.1 µM] | nt | nt | -24%[46.1 µM] | nt | ?
COCCn1c(-c2ccc(OC)cc2)c(-c2ccc(OC)cc2)oc1=O | nt | nt | nt | -1% | -3% | nt | -11% | -11%
CC1CC(C)CN(S(=O)(=O)c2ccc(NC(=S)NC(=O)c3ccccc3)cc2)C1 (stereo not given) | -0.8% | -2% | -9% | 10% | 13% | 8% | 1% | -2%
O=C(C[n+]1ccn(-c2ccccc2)c1)c1ccc([N+](=O)[O-])cc1 | nt | nt | nt | -5% | 12% | nt | -3% | -24%
O=[N+]([O-])c1ccc(CSc2nnc(Cc3ccccc3)o2)cc1 | nt | nt | nt | -2% | -1% | nt | 2% | -20%
Cc1ccc(NC(=O)CSc2nnc(CNC(=O)c3ccco3)o2)cc1 | nt | nt | -9% | 0% | nt | -7% | 14% | -10%
Cc1ccc(C2CC(c3ccccc3)=NN2c2ccccc2)o1 (stereo not given) | -6.2% | ? | 5% | -18% | -27% | 9% | ? | -3%
O=[N+]([O-])c1ccc2nc[nH]c2c1 | 9.7% | 0% | 7%[46.1 µM] | nt | nt | -8%[46.1 µM] | -5% | -10%
COCCNC(=O)/C(C#N)=C/c1c(N2CCCCCC2)nc2c(C)cccn2c1=O | nt | nt | ? | -3% | -3% | -19% | -2% | 20%
COc1ccc(CNC(=O)C2CCN(S(=O)(=O)c3c(C)n[nH]c3C)CC2)cc1 | 2.2% | -6% | 12% | -6% | -5% | -18%[46.1 µM] | -8% | -17%
O=C(c1ccccc1)c1coc2ccc(O)c(CN3CCOCC3)c12 | -3.6% | -14% | 9% | -1% | 0% | -32% | -7% | -10%
O=C(Nc1ccc2oc(-c3ccccc3)nc2c1)c1cccs1 | -8.8% | 2% | 9% | -31% | -14% | 1%[46.1 µM] | -11% | 18%
CCOc1ccccc1N1CC(C(=O)NNC(=O)c2ccc(F)cc2)CC1=O (stereo not given) | nt | nt | 15%[46.1 µM] | 3% | nt | 4% | 25% | 4%
Clc1ccc(SCNc2ccccc2Cl)cc1 | nt | nt | nt | -1% | -6% | nt | -3% | -22%
NC(=O)N/N=C/c1cn(-c2ccccc2)nc1-c1cccs1 | nt | nt | 9% | -2% | nt | 0%[46.1 µM] | ? | 33%[activator]
Cc1c(Cl)cccc1NC(=O)Cn1c(=O)nc(-c2ccccc2)c2ccccc21 | 1.0% | -6% | -5%[46.1 µM] | nt | nt | nt | nt | 10µM*
Cc1ccc(NC(=O)CSc2nc(=O)n(CCCN3CCOCC3)c3c2CCCC3)c(C)c1 | nt | nt | 0% | 3% | nt | 16% | 4% | 5%
CS(=O)(=O)N1CCC(Oc2cccc(C(=O)NCCCOc3cccnc3)c2)CC1 | nt | nt | -1% | nt | -2% | -4% | 4% | -20%
CCS(=O)(=O)Nc1ccc2[nH]c(=O)[nH]c2c1 | nt | nt | 12% | -1% | nt | -5%[46.1 µM] | 12% | 7%
CCCS(=O)(=O)N1CCN(Cc2ccccc2C(F)(F)F)CC1 | 3.4% | 1% | 9% | -4% | -14% | ? | ? | nt
C=CCn1c(C)c(C(=O)OCC)c2cc(O)c3ccccc3c21 | nt | nt | -14%[46.1 µM] | 1% | 2% | 0%[46.1 µM] | 7% | 13%
CCOc1cc(/C=N/NC(=O)CN2CCOCC2)ccc1OCc1ccc(Cl)cc1 | -4.1% | ? | -18% | -3% | -4% | -18% | -5% | -14%
CC1CCN(S(=O)(=O)c2cccc(C(=O)Nc3nncs3)c2)CC1 | nt | nt | 19% | 8% | 14% | -11% | 1% | -6%
Cc1ccc(CCN2CC(C(=O)NCc3ccc4c(c3)OCO4)CC2=O)cc1 (stereo not given) | nt | nt | -13% | -1% | -4% | 4%[46.1 µM] | 5% | -20%
COc1ccc(-c2nnc(SCC(=O)Nc3nncs3)o2)cc1 | nt | nt | -4% | 1% | nt | 1%[46.1 µM] | 29% | 27%
CCOC(=O)c1cc2c(=O)n3ccccc3nc2n(CC2CCCO2)c1=NC(=O)c1ccccc1F (stereo not given) | -2.5% | -3% | -10%[46.1 µM] | nt | nt | 5%[46.1 µM] | nt | 27%
CCOC(=O)N1CCN(S(=O)(=O)Cc2ccccc2)CC1 | 0.2% | -8% | 1% | 5% | 1% | 0% | -2% | -9%
COc1ccc(S(=O)(=O)N2CCOC2CNC(=O)C(=O)NCCc2c[nH]c3ccccc23)cc1 (stereo not given) | -3.8% | ? | ? | 11% | 9% | -10% | -6% | 22µM*
O=Cc1c(F)cccc1N1CCCC1 | nt | nt | 2%[46.1 µM] | 4% | nt | 16%[46.1 µM] | 1% | 9%
Nc1cc2nc3ccccc3nc2cc1N | nt | nt | 25% | -2% | 9% | 20% | -26% | 69%[activator]
CC(=O)Nc1ccc(NC(=O)c2cc(-c3ccc4c(c3)OCCO4)on2)cc1 | -0.2% | -8% | 16%[46.1 µM] | nt | nt | ? | nt | 1%
COC(=O)C(Cc1ccc(OC(=O)c2ccc(Cl)cc2)cc1)N1Cc2ccccc2C1=O (stereo not given) | -2.6% | ? | 9% | -10% | -22% | ? | -1% | -27%

Bioassay records from PubChem BioAssay.
